# Sfp PPTase inh: Sfp phosphopantetheinyl transferase inhibition; hit rate 3.5% among 310,000; Q9F4F7; Biochemical Sfp PPTase activity, qHTS; Potency, µM, for inactives: max response, negative = inhibition, hits mostly inhibitors; active means well fitted inhibition curve with a large enough effect; inconclusive means small, poorly fitted or top-dose-only effect, or another doubt; inactive means no such curve, though single readings can be large or run the other way;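 further: the enzyme is Sfp with the accession as filed and its product quenches rhodamine fluorescence; potency means the concentration at half of the fitted maximal effect; 0% = enzyme reaction without inhibitor and -100% = no enzyme wells; top concentration of the series not given in the record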
#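 After 15 min at room temperature with compound, 15 nM Sfp received 5 uM rhodamine-CoA plus 12.5 uM BHQ-2-ybbR (50 mM Hepes pH 7.6, 10 mM MgCl2). Rate came from the fluorescence difference over 30 min, ex 525/em 598 nm.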
# CtBP-E1A blk: blocks the CtBP interaction with E1A; hit rate 0.49% among 340,000; AlphaScreen GST-E1A/His-CtBP binding, 1536-well; stronger effect = lower value; control for the full effect not named in the record; AID 651724; activity change, % (concentration not given with the values); in the data active means activity change below about -65%; inconclusive means about -30% to -65%; inactive means above about -30%; further: on the % scale 0 is the no-effect control and ±100 the full control effect
#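 GST-E1A and His-tagged CtBP (125 nM each as 5X stock) were preincubated with pin-transferred compound for 2 h at 37 °C in the dark, then glutathione donor and nickel acceptor beads were added for 1 h before AlphaScreen reading.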
# TRPV1 PAM: potentiators of human vanilloid receptor 1 (TRPV1); Q8NER1; TRPV1-expressing cells, Fluo-8 calcium influx, capsaicin EC20 potentiation; host cell line not named in the record; control for the full effect not named in the record; potentiation, % at 8.33 µM; hit rate 0.02% among 320,000; AID 540277; active means potentiation above 80%; inconclusive means 30% to 80%; inactive means below 30%; further: 0% is about no effect
# Target sequence (Q8NER1 whole entry, looked up): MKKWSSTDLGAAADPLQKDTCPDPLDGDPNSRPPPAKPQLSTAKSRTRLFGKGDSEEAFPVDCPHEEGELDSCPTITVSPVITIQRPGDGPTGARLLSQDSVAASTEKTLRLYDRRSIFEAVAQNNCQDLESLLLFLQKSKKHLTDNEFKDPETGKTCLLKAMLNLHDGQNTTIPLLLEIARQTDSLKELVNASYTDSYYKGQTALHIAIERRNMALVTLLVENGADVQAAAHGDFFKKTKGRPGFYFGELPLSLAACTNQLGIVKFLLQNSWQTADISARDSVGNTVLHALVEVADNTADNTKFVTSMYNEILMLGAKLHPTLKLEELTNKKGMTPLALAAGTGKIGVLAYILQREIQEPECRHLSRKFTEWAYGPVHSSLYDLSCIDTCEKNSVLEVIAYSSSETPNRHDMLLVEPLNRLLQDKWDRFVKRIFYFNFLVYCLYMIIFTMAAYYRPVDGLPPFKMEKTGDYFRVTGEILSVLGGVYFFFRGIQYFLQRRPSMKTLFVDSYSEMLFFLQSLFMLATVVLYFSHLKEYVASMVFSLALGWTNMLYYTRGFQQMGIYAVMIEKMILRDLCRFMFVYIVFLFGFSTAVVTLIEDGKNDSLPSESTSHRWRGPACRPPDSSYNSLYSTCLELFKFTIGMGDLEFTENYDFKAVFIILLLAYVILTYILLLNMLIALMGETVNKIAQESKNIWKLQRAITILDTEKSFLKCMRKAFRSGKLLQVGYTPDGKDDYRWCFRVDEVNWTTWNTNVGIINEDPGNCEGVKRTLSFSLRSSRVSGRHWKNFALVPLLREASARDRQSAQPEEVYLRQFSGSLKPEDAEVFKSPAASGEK
#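 Cells expressing TRPV1 were dye-loaded with Fluo-8 and read kinetically: 10 s baseline, 3 min after compound (agonist portion), then 2 min after EC20 capsaicin (allosteric enhancer portion). Calcium-bound dye fluorescence at 480/520 nm.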
# Menin MLL FP FL: inhibitors of human menin-MLL interaction, wild-type MLL peptide | Fluorescence polarization, fluorescein-MLL peptide displacement from menin | FP activity change, % at 61.4 µM | 290,000 tested, under 10 active | AID 1766; inconclusive = falling polarisation curve, or a change in total fluorescence; inactive = total fluorescence flat and polarisation flat or rising; no compound was filed as active; the % refers to the polarisation; negative = inhibition;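 further: % of control where 0% means no effect; inhibitors lower the polarisation; unlabelled MLL peptide was the positive control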
# gsp antagonist: gsp mutant antagonism | AID 624288 | hit rate 0.4% among 340,000 | gsp-mutant cells, cAMP HTRF, 30 min; control for the full effect not named in the record | Potency, µM (highest dose often 76.9 µM), inactives show at the highest dose activity change, negative = inhibition, actives largely listed as inhibitors; active = falling curve of any shape with a large fitted effect; inconclusive = falling curve, mostly with a smaller effect; inactive = flat or rising curve; cell line not stated here;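 further: intracellular cAMP measured with PDE inhibitor Ro 20-1724 present during compound exposure; potency means the concentration at half of the fitted maximal effect; on the % scale 0 is the no-effect control and ±100 the full control effect; nearly all actives have a fitted effect of over 65% in size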
#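 HTRF cAMP measurement after 30 min RT detection following 30 min, 37C compound treatment alongside […] (added as 300 uM solution) in G418-selected cells seeded at 2000/well and grown 16–24 h.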
# gsp ag: activates gsp, the McCune-Albright syndrome mutation; Potency, µM (series often up to 76.9 µM), without a hit: top-dose activation (cAMP increase), actives largely listed as activators; gsp mutant cells, cAMP HTRF, 30 min; control for the full effect not named in the record; hit rate 0.13% among 340,000; active = well fitted activation curve with a large enough effect; inconclusive = small, poorly fitted or top-dose-only effect, or another doubt; inactive = no such curve, though single readings can be large or run the other way; cell line not stated here;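 further: phosphodiesterase inhibitor Ro 20-1724 added with compounds to block cAMP breakdown; potency means the concentration at half of the fitted maximal effect; nearly all actives have a fitted effect of over 60% in size; about a fifth of the inactives were tested at one dose only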
#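 Cells stably selected in G418 were plated at 2000/well, grown 16-24 hr, then given compounds in DMSO with the PDE inhibitor […] (300 uM solution added) for 30 min at 37C; cAMP was read by HTRF.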
# ClpP mod: qHTS Assay for Activators of ClpP; purified B. subtilis ClpP, FRET peptide cleavage, 20 min; Potency, µM (doses to about 57.5 µM), inactives show at the highest dose activity change, negative = active; hit rate 1.9% among 340,000; active = well fitted falling curve with a large enough effect; inconclusive = small, poorly fitted or top-dose-only effect; inactive = no such curve, though single readings can be large or run the other way; further: potency means the concentration at half of the fitted maximal effect; the source files actives as falling curves though it sought activators and does not explain the sign; nearly all actives have a fitted effect of over 65% in size; many hits overshoot -100%
# Target sequence (P80244 whole entry, looked up): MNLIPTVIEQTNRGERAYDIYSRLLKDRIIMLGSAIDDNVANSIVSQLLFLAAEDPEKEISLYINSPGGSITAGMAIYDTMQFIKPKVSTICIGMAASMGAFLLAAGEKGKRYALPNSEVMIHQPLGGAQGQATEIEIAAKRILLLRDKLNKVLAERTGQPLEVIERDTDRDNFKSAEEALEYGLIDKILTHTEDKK
#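 Buffer: 100 mM Tris/HCl pH8, 100 mM KCl, 0.05% low protease BSA, 2.5% glycerol, 0.01% Tween-20. ClpP 10 microg/mL final; 20 min RT; delta FRET normalized to ADEP and DMSO controls.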
# An asterisk follows results filed as active; ? = inconclusive; nt = no result given; [ ] = another dose, or the depositor's remark.
smiles | gsp antagonist | TRPV1 PAM | CtBP-E1A blk | Menin MLL FP FL | gsp ag | Sfp PPTase inh | ClpP mod
CCC1SC2=NC(C)=C(C(=O)OC)C(c3cccs3)N2C1=O (stereo not given) | 3% | -4 | -1 | 2.0 | 18% | 0% | -1.1%
Cc1c(/C=C/C(=O)c2ccc(O)cc2)cnn1C | 3% | 5 | -16 | 1.9 | -2% | 1% | -3.5%
CCOc1ccc(CC(=O)NNC(=S)NCCc2ccccc2)cc1 | 16% | 2 | 8 | -0.5 | -35%[inhibitor] | 29% | 2.8%
CC(C)Cn1c(N)c(C(=O)COC(=O)C2CC(=O)N(c3ccc4c(c3)OCCO4)C2)c(=O)n(C)c1=O (stereo not given) | -4% | 2 | -5 | nt | -29% | nt | -2.7%
O=C(O)c1ccccc1CSc1nc2ccccc2o1 | -10% | 2 | 1 | 0.7 | 5% | 8% | -0.6%
CSc1ccc(CN2CCN(Cc3ccccc3)C(CCO)C2)cc1 (stereo not given) | 6% | -1 | 4 | -0.5 | 3% | 16% | nt
CCn1cc(C(=O)N(C)CC(OC)OC)c(=O)c2cc(S(=O)(=O)N3CCOCC3)ccc21 | 8% | -4 | nt | nt | 6% | 21% | -7.7%
CCOC(=O)c1cc(-c2ccncc2)nc2c1c(C)nn2C | 20% | ? | -1 | -0.8 | -3% | -24% | -3.9%
O=C(COC(=O)c1ccccc1Br)NCc1ccccc1 | -1% | -12 | 13 | 4.0 | 0% | 18% | 25%
COc1ccccc1S(=O)(=O)Cc1ccc(C(=O)N2CCN(c3ccccc3)CC2)o1 | ? | 5 | -20 | -1.0 | 0% | 11% | 0.6%
Cc1cc(C)c(S(C)(=O)=O)c(Sc2ccc(Cl)cc2)n1 | -2% | -13 | 3 | 1.7 | -7% | 6% | -3.3%
COC(=O)Cc1c(C)c2c(O)cc(C)cc2oc1=O | 32%[activator] | 16 | -3 | 3.2 | ? | 7% | -26%
Cn1c(-c2ccc(Br)cc2)cnc1NCc1cccnc1 | 3% | -1 | -9 | 2.3 | 3% | -19% | -3.5%
CS(=O)(=O)N(CC(=O)N1CCC(C(N)=O)CC1)c1cc(C(F)(F)F)ccc1Cl | 2% | -3 | 1 | -1.9 | -9%[15.4 µM] | 14% | nt
Oc1ccc(/C=N/Nc2ncnc3nc[nH]c23)cc1 | 8% | 7 | ? | -2.5 | 14% | ? | -10%
COc1ccc(-c2csc(NC(=O)CSc3nc(C)nc4sc(C(=O)O)c(C)c34)n2)cc1 | ? | 29 | -9 | -5.8 | -4%[15.4 µM] | -4% | nt
COc1ccccc1N1CCN(S(=O)(=O)CCNC(=O)CCc2ccccc2)CC1 | nt | nt | -7 | nt | ? | nt | 0.9%
COc1ccc(/C=N/NS(=O)(=O)c2ccccc2)cc1OS(=O)(=O)c1ccc(C)cc1 | -9% | -24 | -7 | 0.5 | ? | -3% | 1.7%
O=C(/C=C/c1ccc(Cl)cc1)N1CCN(c2ccc(Cl)cc2[N+](=O)[O-])CC1 | 7% | -13 | ? | 3.2 | -5% | 3% | -0.9%
O=[N+]([O-])C(=C1NCCN1)C(Cl)=C(Cl)Cl | 7% | -10 | nt | -6.5 | ? | 6% | -1.9%
CCCc1cc(=O)oc2c(CN3CCN(C)CC3)c(O)c(Cl)cc12 | 1% | 12 | 4 | 0.6 | ? | 13% | 6.5%
Cc1ccc(CN(C)C(=O)CN2C(=O)NC(c3ccccc3)(c3ccccc3)C2=O)c(C)c1 | -19% | -3 | -8 | nt | ? | nt | 2.4%
Cc1ccc(S(=O)(=O)N(CCO)Cc2ccccc2)cc1 | -6% | -16 | -4 | -0.8 | 24%[15.4 µM] | 15% | -0.3%
CCC(=O)Nc1ccc(S(=O)(=O)Nc2cccnc2)cc1 | 3% | 12 | 12 | 2.4 | -28% | -1% | -1.4%
Cc1cccc(Nc2ncnc3ccccc23)c1 | -10% | -10 | 2 | -1.7 | ? | 1% | -1.0%
N#CCc1ccc(Oc2ncc(C(F)(F)F)cc2Cl)cc1 | 7% | -6 | -17 | 3.5 | -7% | 8% | nt
Cc1nc2ccc(S(=O)(=O)NCC(=O)N(C)Cc3ccco3)cc2s1 | 12% | 25 | 2 | 4.1 | 18% | 0% | 0.9%
Cc1cc(C)c(NS(=O)(=O)c2ccccc2)c(C)c1 | 5% | nt | -5 | nt | -10% | nt | nt
COc1ccccc1NC(=O)N(Cc1ccco1)Cc1cc2cc(C)cc(C)c2[nH]c1=O | -36% | 3 | -8 | 1.2 | -21% | -21% | -27%
O=C(Nc1ccccc1Oc1ccsc1C(=O)O)c1ccccc1F | -9% | 12 | nt | 4.4 | ? | 9% | 1.8%
COC(=O)CSc1nn(-c2ccc(F)cc2)c(=S)s1 | -5% | -12 | 21 | 5.6 | -3%[15.4 µM] | 13% | nt
COc1ccc(CNC(=S)NC2CCCC2)cc1 | 14% | -10 | 0 | 3.5 | -2% | 16% | 1.7%
CCCn1c(SCC(=O)c2c(C)[nH]c(C)c2C(=O)OCC)nc2ccccc21 | -12% | -1 | -9 | 5.4 | 2% | 3% | -2.5%
Cc1nn(Cc2ccc(Cl)cc2Cl)c(C)c1NC(=O)c1ccc(COc2cc(Cl)ccc2Cl)o1 | -4% | -3 | -4 | 0.5 | -31%[inhibitor] | 14% | -0.4%
CCN1CC(O)=C(c2nc3ccccc3s2)C1=N | -1% | -6 | 6 | 1.0 | -22% | -28% | 12%
COc1cccc(-c2cnc(NCc3cc(Cl)ccc3O)n2C)c1 | -14% | 7 | ? | -0.5 | 0% | ? | 28µM*
CC1=C(C(=O)Nc2cccnc2)C(c2ccncc2)n2nnnc2N1 (stereo not given) | 6% | -8 | 9 | -0.5 | 1% | ? | 1.0%
CN1c2ccsc2C(O)=C(C(=O)Nc2ccccc2)S1(=O)=O | ? | -9 | 6 | ? | -39%[inhibitor] | 18% | -0.3%
CCCn1c(N2CCN(Cc3cccc(C)c3)CC2)nc2c1c(=O)[nH]c(=O)n2C | -1% | -4 | -1 | 3.0 | 4% | -5% | 0.7%
Nc1ccc(C(=O)NN2C(=O)[C@H](Cl)C2c2ccc(Cl)cc2)cc1 (stereo not given in full) | -23% | nt | 13 | nt | 2% | nt | 1.4%
COc1ccccc1C1CCN(C(=O)c2cccs2)CC1 | -6% | -27 | 0 | -3.2 | 5%[15.4 µM] | -2% | -2.6%
COc1cccc(C(=O)Nc2nnc(S(=O)(=O)N3CCCCC3)s2)c1 | -14% | ? | -6 | 5.0 | ? | 6% | -6.1%
CCn1c(=O)c(C(=O)CN2CCOCC2)c(N)n(Cc2ccccc2)c1=O | 15% | 1 | 2 | -0.7 | 10% | -13% | -0.6%
CCOC(=O)c1[nH]c(C)c(CCC(=O)OC)c1C | 0% | -7 | -14 | 1.3 | 7% | 15% | 0.2%
Cc1nc2ccc(S(=O)(=O)N(C)CC(=O)NCCc3ccccc3)cc2s1 | 0% | -10 | 0 | -3.0 | ? | 6% | -4.4%
CCOc1ccccc1NC(=O)Cn1c(=O)n(-c2ccc(OC)cc2OC)c(=O)c2c(C)c(C(=O)N(CC)CC)sc21 | -14% | 4 | 8 | 0.0 | 13%[15.4 µM] | -3% | nt
O=C(CN(c1cccc(C(F)(F)F)c1)S(=O)(=O)c1ccc(Cl)c([N+](=O)[O-])c1)NCc1ccccc1 | 8% | 10 | -2 | 3.0 | -34%[inhibitor] | 25% | -1.5%
CC(=O)OC1CC(C)(C)N(OC(=O)c2ccc(N)cc2)C(C)(C)C1 | -4% | -8 | 0 | 1.6 | -12% | -2% | -2.5%
O=Cc1cccn1-c1ncc(Br)cn1 | 6% | 15 | -7 | 1.7 | -16%[15.4 µM] | 18% | -1.8%
CCn1cc(C(=O)N2CCCC2)c(=O)c2cc(S(=O)(=O)N(C)C)ccc21 | -6% | ? | 0 | 2.5 | 3% | 8% | -10%

# Complete entries, looked up by structure:
# O=C(COC(=O)c1ccccc1Br)NCc1ccccc1 reads gsp antagonist = -1%; TRPV1 PAM = -12; CtBP-E1A blk = 13; Menin MLL FP FL = 4.0; gsp ag = 0%; Sfp PPTase inh = 18%; ClpP mod = 25%
# CS(=O)(=O)N(CC(=O)N1CCC(C(N)=O)CC1)c1cc(C(F)(F)F)ccc1Cl reads gsp antagonist = 2%; TRPV1 PAM = -3; CtBP-E1A blk = 1; Menin MLL FP FL = -1.9; gsp ag = -9%[15.4 µM]; Sfp PPTase inh = 14%; ClpP mod = nt

# The listing continues:
smiles | gsp antagonist | TRPV1 PAM | CtBP-E1A blk | Menin MLL FP FL | gsp ag | Sfp PPTase inh | ClpP mod
O=C(C1=COCCO1)N1CCN(S(=O)(=O)c2cccc(Br)c2)CC1 | 6% | 7 | 4 | nt | -11% | nt | 3.2%
CN[C@H]1C[C@H]2c3[nH]c4ccccc4c3CCN2C(=O)[C@H]1[C@H](C)O | nt | nt | -3 | nt | -19% | nt | -29%
O=C1CC(C(=O)Nc2ccc(Cl)c(Cl)c2)S/C(=N\N=C\c2ccco2)N1 (stereo not given) | -1% | 7 | -3 | 5.2 | -14%[15.4 µM] | -12% | -1.3%
CCN1C(=O)[C@H]2[C@@H](c3ccc(C(F)(F)F)cc3)N[C@]3(CCCN(Cc4ccccc4)C3=O)[C@H]2C1=O | nt | nt | -12 | nt | ? | nt | 3.2%
Cc1ccc(N2CN(Cc3cccnc3)CNC2=S)c(C)c1 | -1% | 2 | 16 | 2.1 | 6%[15.4 µM] | 5% | -3.1%
O=C(COC(=O)CC1CC2CCC1C2)Nc1ccc(Cl)c(S(=O)(=O)N2CCOCC2)c1 (stereo not given) | -13% | -7 | nt | nt | 15% | nt | 1.1%
O=C(c1ccc2ccccc2n1)N1CCN(S(=O)(=O)c2ccc(Cl)cc2)CC1 | -11% | nt | -1 | nt | 8%[15.4 µM] | nt | -1.8%
C/C(Cc1ccccc1)=N\NC(=O)c1ccc(F)cc1 | 8% | -32 | -15 | -3.4 | -30%[inhibitor] | 3% | -0.6%
COc1ccc2nc(NC(=O)C(NS(=O)(=O)c3cccc4nsnc34)C(C)C)sc2c1 (stereo not given) | ? | 5 | 3 | 0.0 | ? | 18% | 5.0%
CC1CCCC(C)N1C(=O)CSc1nc(N)cc(N)n1 (stereo not given) | 1% | 12 | -10 | 3.5 | 0% | 7% | nt

# Compound activity as filed in PubChem BioAssay.
